CDC25B CDK2 inh: human CDC25B-CDK2/CyclinA binding inhibition | HTRF CDC25B-CDK2/CyclinA binding, anti-His/anti-Flag; stronger effect = higher value | z-score (no concentration beside the values) | hit rate 0.72% among 94,000 | AID 1259370;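 note: score is relative to mean and SD of negative controls; strong numbers were not always called active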
HIV TAR-Tat: HIV-1 TAR-Tat binding disruption. HIV-1 TAR RNA, Tat peptide displacement FRET; stronger effect = higher value. z-score (concentration not given with the values). hit rate 0.6% among 100,000;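 note: score is relative to mean and SD of negative controls; some compounds called inactive have numbers as strong as hits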
* hit, by the source's call; · = no result given.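 Rule for the calls: active = z-score from 3 up in half or more of its runs; inactive = the rest.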

Structure | CDC25B CDK2 inh | HIV TAR-Tat
O=C(CN1N=NC2C(=O)N(c3ccc(F)c(F)c3)C(=O)C21)Nc1ccc(F)c(Cl)c1 (stereo not drawn) | · | 1.2
Cc1ccc(/C(O)=C2/C(=O)C(=O)N(CC(C)C)C2c2cccc(O)c2)cc1 (stereo not drawn) | 0.23 | 0.58
Cn1ncc2c(Nc3ccc(Br)cc3)ncnc21 | · | -0.12
COC(=O)c1cc(NC(=O)c2cc(Cl)ccc2Cl)cc(C(=O)OC)c1 | -1.5 | ·
CCN(CCC#N)C(=S)Nc1cccc2ccccc12 | -0.16 | ·
CCOC(=O)C1CCCN(c2c(N3CCc4ccccc4C3)c(=O)c2=O)C1 (stereo not drawn) | -1.4 | 0.28
CCOC(=O)c1sc(NC(=O)Cc2csc(C)n2)c(C(=O)OCC)c1C | -2.6 | 1.8
O=C(CSc1nccn(-c2ccccc2)c1=O)Nc1ccccc1 | · | 0.53
CCOC(=O)C1=C(C)NC(=O)NC1c1ccc(-c2ccccc2)cc1 (stereo not drawn) | -0.05 | ·
Cc1cccc(-c2n[nH]n3c2nc(=O)c2ccccc23)c1 | -0.11 | 0.75

Quoted at random: 5 compounds from above, in no set order.
Structure | CDC25B CDK2 inh | HIV TAR-Tat
COC(=O)c1cc(NC(=O)c2cc(Cl)ccc2Cl)cc(C(=O)OC)c1 | -1.5 | ·
CCOC(=O)C1=C(C)NC(=O)NC1c1ccc(-c2ccccc2)cc1 (stereo not drawn) | -0.05 | ·
Cc1ccc(/C(O)=C2/C(=O)C(=O)N(CC(C)C)C2c2cccc(O)c2)cc1 (stereo not drawn) | 0.23 | 0.58
O=C(CN1N=NC2C(=O)N(c3ccc(F)c(F)c3)C(=O)C21)Nc1ccc(F)c(Cl)c1 (stereo not drawn) | · | 1.2
CCOC(=O)c1sc(NC(=O)Cc2csc(C)n2)c(C(=O)OCC)c1C | -2.6 | 1.8

Continued:
Structure | CDC25B CDK2 inh | HIV TAR-Tat
NC(=O)c1cc(S(=O)(=O)N(CCN2CCOCC2)Cc2ccco2)cs1 | · | -0.31
COc1ccc(C2CC(=O)C3=C(C2)Nc2ccccc2NC3c2coc3ccc(Cl)cc3c2=O)cc1 (stereo not drawn) | -0.69 | 1.7
O=C1c2ccccc2C2N1CCCN2S(=O)(=O)c1ccccc1 (stereo not drawn) | -0.79 | ·
O=C(CN1CCN(C2CCCCC2)CC1)c1ccc2c(c1)CCN2 | 0.12 | 1.6
CCC(C)(C)NS(=O)(=O)c1cc2[nH]c(=O)c(=O)[nH]c2cc1C | · | 0.97
Cc1ccc(-c2cnc(C3CC3)o2)cc1S(=O)(=O)Nc1ccc2c(c1)OCCO2 | · | 0.87
CCN1CCCn2c1nc1c2c(=O)[nH]c(=O)n1C | -2.2 | 2.7
O=C1CCCN2N=C(SCC(=O)N3CCOCC3)SC2=N1 | -0.52 | ·
COC(=O)c1cc(S(=O)(=O)N(C)CC(=O)NC2CCCC2)cn1C | · | -0.76
COc1cc(NC(=O)c2cc3ccccc3o2)ccc1NC(=O)c1cc2ccccc2o1 | -0.43 | ·
CN(C)S(=O)(=O)N1CCC(Oc2cccc(-n3cnnn3)c2)CC1 | 0.6 | 1.7
CCOc1ccc(OCC)c(NS(=O)(=O)c2ccc(-c3cnc(C)o3)cc2)c1 | · | 0.98
CCc1nc(-c2csc(S(=O)(=O)Nc3ccc(OC)cc3)c2)no1 | · | 0.93
O=C(O)c1ccc(CN2CCOCC2)cc1 | · | 1.4
CN(C)c1c(F)cc(C(=O)NC(=O)NC2=NCCS2)cc1F | -1.5 | ·
O=C(NCCCN1CCOCC1)c1ccccc1NC(=O)c1sc2ccccc2c1Cl | -1.3 | ·
CCOC(=O)N1CCC(NC(=O)COCc2cc(-c3cccs3)on2)CC1 | · | 0.74
CCCc1nc(-c2ccc(-c3ccc(C)cc3)nc2OC)no1 | -1.4 | -1.2
CCCc1nnc(NC(=O)c2cc(-c3cccs3)on2)s1 | -1.8 | 2.5
CC(=O)Nn1c([N+](=O)[O-])cnc1C | -1.6 | ·
COc1cc(OC)c(-c2nc(-c3ccccc3)c(-c3ccc([N+](=O)[O-])cc3)[nH]2)cc1OC | -0.25 | ·
N#CC1=C(SCc2ccccc2)SC(CO)NC1=O (stereo not drawn) | -1.4 | -0.48
CCCCn1nnc(NCc2cccc3ccccc23)n1 | · | 1.3
COc1cccc(-n2c(C)c(C)c3c2ncn2nc(-c4cccs4)nc32)c1 | -1.1 | 1.5
CCOC(=O)C(CC)Oc1ccc2c(c1)oc(=O)c1ccccc12 (stereo not drawn) | -0.92 | -0.06
C=CCNc1nc(N)c([N+](=O)[O-])c(Nc2ccc(F)cc2)n1 | · | 1.1
Cn1c(=O)c2c(ncn2CC(=O)Nc2cccc(Br)c2)n(C)c1=O | -0.8 | 0.27
C=CCn1c(=O)[nH]c2c1c(=O)n(C)c(=O)n2C | 0.38 | ·
O=C(O)CCC(=O)Nc1ccc(N2CCOCC2)cc1 | · | 1.3
C=CCN1C(=O)C2(c3ccccc31)c1c(oc3cc(C)c(C)cc3c1=O)C(=O)N2CCCOC (stereo not drawn) | -2 | 0.89
O=c1ccc(Oc2nc(N3CCCCC3)nc(N3CCCCC3)n2)n[nH]1 | 0.13 | -0.05
N=C1CC(=O)N=C2SC(C3CC3)=NN12 | -1.6 | ·
Cc1nn(C)c(C)c1CNC(=O)Cn1c(=O)c(=O)n(C)c2ncccc21 | · | 0.57
NC(=O)C1=CN(C(=O)Nc2ccc(Cl)cc2Cl)CCC1C(F)(F)F (stereo not drawn) | -2.1 | ·
Cc1ccc(CNc2oc(COc3ccccc3C)nc2C#N)cc1 | 0.18 | -0.37
Cn1ncc2c(=O)n(CC(=O)NCCC3=CCCCC3)cnc21 | 0.34 | 0.07
CN1C(=O)Cc2cc(S(=O)(=O)NCCc3ccccc3)ccc21 | · | 0.52
COC(=O)CN1C(=O)CSc2ccc(S(=O)(=O)Nc3ccc(OC)cc3)cc21 | · | 0.24
COC(=O)c1c(NC(=O)c2nc(S(=O)(=O)Cc3ccccc3)ncc2Cl)sc2c1CCC2 | -0.61 | -1.2
CC1(C)Cc2nc3oc4c(NCCO)ncnc4c3cc2CO1 | · | 0.54
CC1Cc2ccccc2N1C(=O)CN(C)S(=O)(=O)c1ccc2c(c1)CCCC(=O)N2 (stereo not drawn) | · | 1.4
CCC1CN(C(=O)Nc2cc(OC)ccc2OC)c2cc(Cl)ccc2O1 (stereo not drawn) | · | 0.96
CCOC(=O)c1cc(S(=O)(=O)N(C)CC(=O)N2CCCC2)cn1C | · | -0.21
C=CCn1c(C(C)O)nc2ccccc21 (stereo not drawn) | -2 | ·
Cc1ccc(C2N3CC4(C)CN2CC(C)(C3)C4)cc1 (stereo not drawn) | -0.92 | 1.2
CN(C)CCN1C(=O)C(O)=C(C(=O)c2cc3ccccc3o2)C1c1ccc(O)cc1 (stereo not drawn) | -0.81 | -0.48
Fc1ccc(-n2ncc3c(N4CCc5ccccc54)ncnc32)cc1 | · | 1.3
CCOC(=O)CN1C(=O)C(O)(CC(=O)c2cccc(Br)c2)c2ccccc21 (stereo not drawn) | -2.3 | 1.2
CCSc1nnc(NC(=O)C2CCCN(S(=O)(=O)c3ccc4c(c3)oc(=O)n4C)C2)s1 (stereo not drawn) | -0.31 | ·
O=C(CCCC(=O)Nc1cccnc1)Nc1cccnc1 | -0.7 | ·

(list continues)
Structure | CDC25B CDK2 inh | HIV TAR-Tat
CCCOc1ccc(C2C3=C(CC(C)(C)CC3=O)NC3=C2C(=O)CC(C)(C)C3)cc1 | 16* | 0.94
Cc1cccc(Nc2c(-c3ccsc3)nc3nc(C)cc(C)n23)c1 | -1.9 | ·
Cc1cc2[nH]c(=O)c(=O)[nH]c2cc1S(=O)(=O)NC1CCCC1 | · | 0.96
O=C(CSc1ccc2nnc(-c3ccc(F)cc3)n2n1)Nc1ccc2c(c1)OCO2 | -9.9 | ·
O=C(Nc1ccc(F)cc1)C1=C(N2CCCC2)c2ccccc2S1(=O)=O | · | 0.39
COc1cc(CN2CCN(Cc3ccco3)CC2)cc(OC)c1 | 0.39 | -0.3
COc1ccc(OCc2nc(-c3ccc4c(c3)[nH]c(=O)n4C3CCCC3)no2)cc1 | · | -0.09
Cc1cc(C)c(NC(=O)CSc2nn3c(=O)c(C)nnc3s2)c(C)c1 | · | 1.5
COc1ccc(C2C=C(c3ccc(Br)cc3)Nc3nnnn32)cc1 (stereo not drawn) | · | -1.7
COCCCNC(=O)C(C)n1nc(C)c2sc3ccccc3c2c1=O (stereo not drawn) | -0.6 | 1.3
O=C(c1c[nH]c2ccccc12)C(F)(F)F | -2.4 | ·
COc1ccc(S(=O)(=O)NC(C)c2nc(-c3ccc(C)cc3)no2)cc1 (stereo not drawn) | -1.3 | -0.04
CCOC(=O)c1c(N)c(C#N)n2c1CCC2 | -1.4 | ·
CCc1nnc(SCC(=O)NCc2ccco2)c2cc3occc3n12 | · | 1
O=C(NC1CCN(Cc2ccccc2)CC1)c1cccn1CCc1ccccn1 | -0.4 | ·
Cc1noc(C)c1S(=O)(=O)N1CCCCC1 | 0.8 | 0.78
O=C(CN1C(=O)c2ccccc2S1(=O)=O)Nc1c(F)cccc1F | -0.16 | 2.2
CN(C)CCCN(C(=O)c1ccco1)c1nc2ccc(Cl)cc2s1 | · | -0.51
S=C1NCN(C2CCCCC2)CN1 | -0.41 | ·
FC(F)(F)c1nnc(Nc2cccnc2)s1 | -1.9 | ·
O=C(CSc1ccc2nnc(-c3cccc(F)c3)n2n1)Nc1ccc2c(c1)OCO2 | -4.8 | ·
Cc1cc(NC(=O)c2ccc(-c3noc(C4CCCC4)n3)cc2)no1 | · | -1.2
CCc1cc(Nc2cc(C)cc(C)c2)n2ncnc2n1 | -2 | -1
CCc1ccc2nc(NC3=NCN(C(C)C)CN3)nc(C)c2c1 | 1.8 | 1.1
Cc1cc(NC(=O)Nc2nnc(N3CCCC3)s2)ccc1Br | -0.27 | -0.14
O=C(CN1CCN(C(=O)C2COc3ccccc3O2)CC1)Nc1ccccc1 (stereo not drawn) | -2.1 | ·
COc1cccc(CN2CCN(Cc3ccc4c(c3)OCO4)CC2)c1OC | 0.81 | 1.6
COc1cc(OC)cc(C(=O)N2N=C(C)CC2(O)C(F)(F)F)c1 (stereo not drawn) | 0.59 | ·
Cc1cccc(N(C)S(=O)(=O)c2c(C)nc3sccn3c2=O)c1 | · | -2
COc1ccc(Cc2nc(COc3ccc(Cl)c(C)c3)no2)cc1OC | 0.6 | 0.88
CC(C)Nc1cc(N2CCCC2)c2noc3c2c1C(=O)c1ccccc1-3 | -1.7 | -5
COc1ccc(-n2nc(C(=O)O)c(=O)n(C)c2=O)cc1 | -0.69 | 1
CCOC(=O)c1ccc(NC(=S)N/N=C/c2c(Cl)cccc2Cl)cc1 | -0.81 | ·
COCCNC(=O)Cn1c(C(=O)OC)ccc1-c1ccco1 | -0.27 | 0.4
CCOC(=O)c1[nH]c2ccc(F)cc2c1N | -2 | -0.68
CCOC(=O)N1CCC(n2c(SCc3ccc(C)cc3)nc3ccsc3c2=O)CC1 | · | 1.1
CCOc1cccc(C2c3c(oc4ccccc4c3=O)C(=O)N2c2nnc(C)s2)c1 (stereo not drawn) | -0.6 | 0.07
N#CC1=C(N)Oc2c(oc(CO)cc2=O)C1c1ccccc1Cl (stereo not drawn) | 0.44 | ·
O=c1oc2ccccc2n1Cc1ccccc1 | · | 2.2
CCOc1cc(-c2ccc(OC(=O)c3ccccc3)cc2)cc(=O)c2c(C)oc(C)c12 | -0.5 | -3.7
CCOC(=O)c1ccc(-n2sc3c(c2=S)-c2ccccc2NC3(C)C)cc1 | -0.29 | 0.08
COCCn1c(SCC(=O)Nc2nccs2)nc2c(c1=O)SCC2 | -1.5 | 3.1
COc1cc(C(=O)Oc2c(Cl)cc(Cl)cc2/C=N/NC(N)=S)cc(OC)c1OC | 0.48 | ·
C/C(=N\OCC(=O)N=S(C)(=O)c1ccc(C)cc1)c1ccc(Cl)cc1 (stereo not drawn) | -1.8 | ·
CCc1c(C)nc2ccc(Br)cc2c1SCCC(=O)O | -8.5 | -0.03
CCOC(=O)C1C2C=CC3(CN(C(C)C)C(=O)C13)O2 (stereo not drawn) | -0.45 | -0.86
COc1c(/C=C(\NC(C)=O)C(=O)O)cccc1OC1CCCC1 | -2.3 | ·
O=c1[nH]c(-c2cccc(O)c2)nc2c1Cc1cc(Cl)ccc1O2 | -2 | 2
CCOC(=O)c1cn(CC)c2cc(Cl)c(-c3ccco3)c(Cl)c2c1=O | 1.6 | ·
COc1ccc(C2=CC(c3ccccc3)c3ccccc3O2)cc1OC (stereo not drawn) | -1.5 | 1.9

Five of these compounds, reformatted:
Order of results – CDC25B CDK2 inh | HIV TAR-Tat
- CCOC(=O)C1C2C=CC3(CN(C(C)C)C(=O)C13)O2 (stereo not drawn)
  -0.45 | -0.86
- COc1c(/C=C(\NC(C)=O)C(=O)O)cccc1OC1CCCC1
  -2.3 | ·
- O=c1[nH]c(-c2cccc(O)c2)nc2c1Cc1cc(Cl)ccc1O2
  -2 | 2
- CCOC(=O)c1cn(CC)c2cc(Cl)c(-c3ccco3)c(Cl)c2c1=O
  1.6 | ·
- COc1ccc(C2=CC(c3ccccc3)c3ccccc3O2)cc1OC (stereo not drawn)
  -1.5 | 1.9

New compounds follow
Structure | CDC25B CDK2 inh | HIV TAR-Tat
O=C(Nc1ccc(Br)cc1F)N1CCC(CN2CCCCC2)CC1 | · | 1.1
COc1ccc(NC(=O)CCS(=O)(=O)c2ccc3c(c2)CCN3C(=O)C2CC2)cc1 | · | 0.47
CN1C(=O)CCc2cc(NS(=O)(=O)c3ccc(Cl)cc3)ccc21 | · | 2.3
COc1ccc(C(=O)CSc2n[nH]c(-c3ccco3)n2)cc1C | -3.2 | -1.9
CC(=O)N1CCc2cc(S(=O)(=O)C(C)CC(=O)N3CCN(c4ccc(Cl)cc4)CC3)ccc21 (stereo not drawn) | · | 0.03
O=c1cc2nc(-c3cccs3)nc(SCCOc3ccc(Cl)cc3)n2[nH]1 | · | 0.06
Cc1onc(-c2c(F)cccc2Cl)c1-c1nc(-c2ccc(OS(=O)(=O)N(C)C)cc2)no1 | -0.07 | ·
Cc1ccc(SCc2cc(=O)n3nc(-c4ccco4)sc3n2)cc1 | -1.6 | 0.42

Screening data (PubChem)
